Screening data from PubChem BioAssay.
HPGD block – HPGD (human) dehydrogenase inhibition. purified HPGD, NADH fluorescence kinetic, PGE2 substrate. hit rate 4.3% among 150,000. Potency, µM, for inactives: at the highest dose activity change, negative = inhibition, hits mostly inhibitors; active = well fitted inhibition curve with a large enough effect (not every such curve was filed as active); inconclusive = small, poorly fitted or top-dose-only effect, or another doubt; inactive = no such curve, though single readings can be large or run the other way;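 also: top concentration of the series not given in the record; plate controls included wells without enzyme; inactives centre near -10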
Target sequence (P15428 whole entry, looked up): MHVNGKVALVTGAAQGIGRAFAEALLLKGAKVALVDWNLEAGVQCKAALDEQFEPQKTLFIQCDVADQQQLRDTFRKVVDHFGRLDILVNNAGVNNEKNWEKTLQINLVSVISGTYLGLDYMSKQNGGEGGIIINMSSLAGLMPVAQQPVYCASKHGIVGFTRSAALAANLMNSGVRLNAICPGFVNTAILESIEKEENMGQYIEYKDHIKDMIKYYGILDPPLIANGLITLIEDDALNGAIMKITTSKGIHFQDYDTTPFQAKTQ
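NADH formation kinetics: reaction with 30 uM PGE2 and 1 mM NAD+ (final), 20 nM enzyme, Tris-HCl pH 8 with Tween 20, after 15 min compound preincubation at room temperature. Fluorescence change, last versus first of five reads.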
Starred values were filed as active, the others as inactive; ? = inconclusive; & = joins results of further samples. % is scaled to controls: 0 for no effect and ±100 for the full control effect; potency is read from the fitted curve at half-maximal effect. Not all compounds are listed (hit frequency here may not be typical).

no.	Compound	HPGD block
1	Cc1ccc(-n2nc(C)c3c2OC(N)=C(C#N)C3c2cccs2)cc1 (stereo not drawn)	-13%
2	Cn1cc(/C=N/n2cnc3sc4c(c3c2=O)CCCC4)c2ccccc21	?
3	Cc1nc(NC(=O)C2CCCCC2)sc1C	-14%
4	CC(=O)CCc1ccc(OCCCCn2cncn2)cc1	-13%
5	CCCCn1cnc2c(sc3nc4c(cc32)CSC(C)(C)C4)c1=O	-17%
6	Cc1ccc(C(=O)CSc2nn3c(=O)c(C(C)(C)C)nnc3s2)cc1	-11%
7	COc1ccc(N(C(=O)c2ccn[nH]2)C(C(=O)NC(C)(C)C)c2ccc(F)cc2)cc1 (stereo not drawn)	-9%
8	O=C(Nc1cnccn1)c1ccncc1	-8%
9	COC(=O)N1CCC2(CCCN(c3ccc(-c4ccccc4)cc3)C2)CC1	-25%
10	COc1ccc(-n2nnnc2SCc2nc(N)nc(N3CCOCC3)n2)cc1	-13%
11	CCCCc1nc2ccn(CC(=O)N(C)C)c(=O)c2n1Cc1ccc(-c2ccccc2-c2nn[nH]n2)cc1	-8%
12	Cc1cccc(-c2nc(Nc3ccc(N4CCOCC4)cc3)c3ccccc3n2)c1	-10%
13	NC(N)=NCCCC(=O)O	-2%
14	CCNc1nc(=S)nc(NC(C)C)[nH]1	-4%
15	CCOC(=O)C1=NN(C(C)=O)C2(CC(=O)N(c3ccc(C)c(C)c3)C2=O)C1 (stereo not drawn)	-12%
16	COc1cc(OC)c(OC)cc1CN(C)C(c1ccccc1)c1nnnn1-c1ccccc1C (stereo not drawn)	-3%
17	Cc1ccc(OCCN2CCN(c3nc(NCc4ccco4)c4ccccc4n3)CC2)cc1	-20%
18	Clc1cccc(-c2nc3nc4ccccc4nc3n2Cc2ccco2)c1	?
19	COC(=O)[C@@H]1[C@@H](C)N(Cc2ccccc2)C(=O)N[C@H]1c1ccccc1	-12%
20	CCN1CCN(C(c2cccs2)C(C)NC(=O)c2ccccc2F)CC1 (stereo not drawn)	3%
21	CSc1ccccc1-n1nnnc1SCc1ccccc1	-30%
22	CC(=O)c1cccc(NC(=O)COc2ccc(S(=O)(=O)N3CCCCC3)cc2)c1	-8%
23	c1ccc(CCn2c3ccccc3c3nnc(SCc4ccc5nonc5c4)nc32)cc1	-19%
24	O=C(CCC(=O)Nc1ccccc1Cl)N/N=C1\CCCc2ccccc21	-9%
25	Cc1cccc(N(CC(=O)NC2CCCC2)C(=O)c2c(C)noc2C)c1	-3%

Following part:
no.	Compound	HPGD block
26	CC1CC(OCC(O)CN2CCN(Cc3ccccc3)CC2)CC(C)(C)C1 (stereo not drawn)	-4%
27	CCCNC(=O)c1cccc(C(F)(F)F)c1	-8%
28	O=c1nc2c(-c3ccccc3F)n[nH]n2c2ccccc12	?
29	COC(=O)C1=C(C(=O)OC)[C@@H]2Nc3ccccc3[C@@]23C[C@@H](C(=O)OC)N(S(=O)(=O)c2ccc([N+](=O)[O-])cc2)C3=N1	-11%
30	COc1cc(C(=O)NCCCc2nc3ccccc3n2Cc2cc(C)ccc2C)cc(OC)c1OC	-14%
31	COc1ccccc1C(=O)Nc1c2c(nn1-c1cccc(C)c1C)CS(=O)C2 (stereo not drawn)	-7%
32	O=C(Nc1ncc2c(n1)-c1ccccc1CC2)c1cccc(Cl)c1	?
33	C=CCSc1nnc(-c2cnn(-c3ccccc3)c2-n2cccc2)n1C	?
34	C/C(=N/OCC(=O)NCCCCCCNC(=O)CO/N=C(/C)c1cccs1)c1cccs1	-15%
35	CCOC(=O)CCc1c(C)c2ccc(OC(C)C(=O)OCC)c(C)c2oc1=O (stereo not drawn)	?
36	O=C(CSC1=NCCS1)NC1CCCCC1	?
37	CC(NC(=O)/C(C#N)=C/c1cn(-c2ccccc2)nc1-c1ccc(F)cc1)c1ccccc1 (stereo not drawn)	?
38	Cc1[nH]c(=O)[nH]c(=O)c1CSc1nnc([C@@H](NC(=O)OC(C)(C)C)C(C)C)o1	0%
39	CN(C)c1ccc(P(=O)(OCc2ccccc2)C(O)c2ccncc2)cc1 (stereo not drawn)	-8%
40	CN1CCC(OC(=O)c2cccc(Br)c2)CC1	-10%
41	CCOc1nc(-c2ccc(Cl)cc2)nc2ccccc12	-5%
42	COc1ccc(C2CC(=O)Oc3ccc(C(C)(C)C)cc32)cc1 (stereo not drawn)	?
43	CSc1cccc(NC(=O)C(C)Sc2ccc(C)cc2)c1 (stereo not drawn)	-10%
44	COc1ccc(S(=O)(=O)Nc2c3ccccc3nc(=O)n2-c2ccccc2)cc1	-19%
45	O=S1(=O)N=C(Oc2ccccc2)c2ccccc21	-9%
46	Cc1ccc(OCCNc2ccc(C(F)(F)F)cc2[N+](=O)[O-])cc1	-8%
47	Cc1cc(S(=O)(=O)N2CCN(Cc3ccccc3)CC2)c(C)s1	-3%
48	O=C(CSc1nc(C2CCCCC2)nc2ccccc12)NCc1ccc2c(c1)OCO2	-6%
49	Cc1ccc(OCCCC(=O)N2CCOCC2)c(C)c1	20µM*
50	COc1ccc(C2(C(=O)Nc3ccc(C(=O)O)cc3)CCOCC2)cc1	-3%

Continuation.
no.	Compound	HPGD block
51	CSCc1cc(N(C)C)nc(SCc2ccc(Cl)c(Cl)c2)n1	-11%
52	O=C(NC(=S)N1CCN(c2ccc([N+](=O)[O-])cc2)CC1)c1ccc(F)cc1	-26%
53	CCCCN(CCCC)C(=O)c1nsnc1-c1ccccc1O	1%
54	CCOC(=O)CN1C2=NCCN2c2ccccc21	-4%
55	O=C(NCc1ccccc1)C1CCCN1S(=O)(=O)c1cccc2cccnc12 (stereo not drawn)	-5%
56	CC(=O)Nc1cc(N=Cc2ccc(O)cc2O)c(Cl)cc1Cl	-14%
57	CC(/C=N/n1cnnc1)=C\c1ccco1	-14%
58	O=C(CSc1ncnc2c1oc1ccccc12)NC1CCCCC1	?
59	O=C(COC(=O)/C=C/c1ccccc1Cl)NC(=O)Cc1ccccc1	-2%
60	COc1ccc(-n2nnnc2S(=O)(=O)CC(=O)N2CCCCC2)cc1	14µM*
61	O=C(NCCCn1ccnc1)/C(=C\c1cccs1)NC(=O)c1ccco1	-8%
62	CCN(CC)S(=O)(=O)c1cccc(NC(=O)c2ccc(-n3nc(C)cc3C)cc2)c1	1%
63	C[C@]12CC[C@@H]3c4ccc(O)cc4CC[C@H]3[C@@H]1C[C@@H](O)[C@@H]2O	-2%
64	O=C(CSc1ncccc1-c1nc2ccccc2[nH]1)NCc1ccco1	?
65	O=C(CCC(=O)N1CCN(S(=O)(=O)c2ccc(Cl)cc2)CC1)NCc1ccccc1	1%
66	CC1Cc2ccccc2N1C(=O)CSc1ccccc1 (stereo not drawn)	-22%
67	CC(C)NC(=O)NC(=O)COc1c(F)c(F)cc(F)c1F	-15%
68	CCN(CC)CCCN(Cc1cc2ccc(C)c(C)c2[nH]c1=O)C(=O)NC1CCCCC1	-16%
69	CCOC(=O)C1=C(C)NC(=O)N[C@@H]1c1coc2cc(C)cc(C)c2c1=O	-1%
70	COc1ccc(-c2c(C(=O)O)nc3ccccc3c2C(=O)O)cc1	-6%
71	COC(=O)CCC(=O)OC1(C)C(=O)C=C2C=C(C3CC3)OC=C2C1=O (stereo not drawn)	-5%
72	Cc1csc(/C(C#N)=N/O)n1	-29%
73	Cc1cc(C)c(C#N)c(SCc2c(F)cccc2[N+](=O)[O-])n1	-22%
74	CC1CCCCC1NC(=S)Nc1ccc(SC(F)F)cc1 (stereo not drawn)	-17%
75	COc1ccccc1NC(=S)NNC(=O)c1nn(C)c(C)c1Br	-11%

Seven of the entries above in order of their number in HPGD block, ascending.
no.	Compound	HPGD block
73	Cc1cc(C)c(C#N)c(SCc2c(F)cccc2[N+](=O)[O-])n1	-22%
67	CC(C)NC(=O)NC(=O)COc1c(F)c(F)cc(F)c1F	-15%
75	COc1ccccc1NC(=S)NNC(=O)c1nn(C)c(C)c1Br	-11%
54	CCOC(=O)CN1C2=NCCN2c2ccccc21	-4%
63	C[C@]12CC[C@@H]3c4ccc(O)cc4CC[C@H]3[C@@H]1C[C@@H](O)[C@@H]2O	-2%
69	CCOC(=O)C1=C(C)NC(=O)N[C@@H]1c1coc2cc(C)cc(C)c2c1=O	-1%
65	O=C(CCC(=O)N1CCN(S(=O)(=O)c2ccc(Cl)cc2)CC1)NCc1ccccc1	1%

Ordered by molar mass (lowest first): 3 of the compounds above.
no.	Compound	HPGD block
72	Cc1csc(/C(C#N)=N/O)n1	-29%
51	CSCc1cc(N(C)C)nc(SCc2ccc(Cl)c(Cl)c2)n1	-11%
75	COc1ccccc1NC(=S)NNC(=O)c1nn(C)c(C)c1Br	-11%

The list continues.
no.	Compound	HPGD block
76	NC(=O)c1cccnc1Oc1cccc(Cl)c1	-5%
77	COc1ccc(C2C(C#N)=C(N)Oc3n[nH]c(-c4ccccn4)c32)c(OC)c1OC (stereo not drawn)	-12%
78	COC(=O)[C@@H]1C[C@H]1[C@@H](NC(=O)c1cc(C)on1)c1ccccc1	-5%
79	CCCc1cc(=O)oc2cc(C)cc(OCC(=O)O)c12	?
80	O=C(N/N=C/C=C\c1ccco1)c1cccnc1	-13%
81	COC(=O)[C@H](Cc1ccccc1)NC(=O)O[C@H]1C(=O)c2ccc(OC)cc2O[C@@H]1c1ccc2c(c1)OCO2	-3%&1%
82	CCOC(=O)/C(=C/c1c2ccccc2cc2ccccc12)NC(=O)c1ccccc1	-1%
83	CCOc1ccc(C(=O)c2ccncc2)cc1	-18%
84	COc1ccc2nc3oc(C(=O)Nc4ccc(OC)c(OC)c4)cc3cc2c1	?
85	C/C(=N\NC(=O)COc1ccc(C#N)cc1)c1ccc(N2CCOCC2)cc1	-30%
86	CCSc1nnc(N2C(=O)CC(c3ccsc3)C3=C2CC(C)(C)CC3=O)s1 (stereo not drawn)	-10%
87	CC(C)=C1C(=O)NN(c2ccc(C)c(Cl)c2)C1=O	16µM*
88	CC(C)Cc1nnc(NC(=O)CCC(=O)N2CCN(c3ccccn3)CC2)s1	-22%
89	COC(=O)COc1ccc(S(=O)(=O)Nc2ccc(C(N)=O)cc2)cc1	-4%
90	O=C(c1cc(-c2ccncc2)nc2ccc(Br)cc12)N1CCN(c2ccccn2)CC1	-15%
91	Cc1csc(NC(=O)CSc2nnc(-c3ccncc3)n2C)n1	-10%
92	COc1ccccc1N1CCN(C(=O)c2ccc(S(=O)(=O)N3CCCCCC3)cc2)CC1	-3%
93	O=C(CSc1nnc(-c2ccccc2)n1Cc1ccccc1)N1CCCC1	-1%
94	CCOc1ccccc1C1C(C#N)=C(N)Nc2onc(-c3ccccc3)c21 (stereo not drawn)	-14%
95	Cc1ccccc1NC(=O)c1cccc(N2C(=O)C3C4CCC(C4)C3C2=O)c1 (stereo not drawn)	-4%
96	CSc1ccc(CN(C)CC(=O)Nc2cccc(Br)c2)cc1	-18%
97	O=C(Nn1c(C2CCCCC2)nc2ccccc2c1=O)c1ccc([N+](=O)[O-])cc1	-12%
98	CSCCC(N)C(=O)O (stereo not drawn)	0%
99	COc1cccc(N(CC(=O)Nc2cccc(N(C)S(C)(=O)=O)c2)S(C)(=O)=O)c1	-11%
100	O=C(CN1CCN(CCN2C(=O)c3cccc4cccc(c34)C2=O)CC1)c1ccc(F)cc1	?

Next section.
no.	Compound	HPGD block
101	CC(Sc1ccc2c(c1)OCCO2)C(=O)Nc1ncc(Cl)cc1Cl (stereo not drawn)	-17%
102	CC(C)(C)c1ccc(OCCCC(=O)NC2=NCCS2)cc1	-11%
103	COc1cccc(NC(=O)COC(=O)c2ccc(S(=O)(=O)NCc3ccco3)cc2)c1	-3%
104	COc1ccc(OC)c(NC(=O)CCN2CCCCC2)c1	-10%
105	CCCN=C(N)NCCC[C@H](N)C(=O)O	-7%
106	O=c1[nH]c2cc(Cl)ccc2c(O)c1-c1cccc(Oc2ccccc2)c1	-14%
107	CCN(CC)S(=O)(=O)c1ccc(C)c(NC(=O)/C=C/c2cccs2)c1	-9%
108	CCc1nn(C(C)C(=O)Nc2cccc(C)c2C)c(=O)c2cc3occc3n12 (stereo not drawn)	-13%
109	COc1ccc(CCNC(=O)c2nnc(Cc3ccc(Cl)cc3)o2)cc1OC	-11%
110	O=C(NCCCN1CCc2ccccc2C1)C1CCN(c2nnc(-n3cccc3)s2)CC1	?
111	COc1ccc(CCNS(=O)(=O)c2ccc(Cl)s2)cc1OC	-8%
112	O=S(=O)(c1ccc(Cl)cc1)N1CCC(N2CCOCC2)CC1	-8%
113	Cc1nc2ccccc2n2c(O)c(CC(=O)O)cc12	?
114	Cc1ccc(N(C(=O)c2nsc(Cl)c2Cl)C(C(=O)NC2CCCC2)c2ccc(O)cc2)cc1C (stereo not drawn)	-9%
115	CCn1c(SCCOc2ccc(OC)cc2)nnc1C(CO)NC(=O)c1ccc(OC)cc1 (stereo not drawn)	-5%
116	COc1cccc(CC(C(=O)Nc2cc(C)ccc2C)c2nn[nH]n2)c1OC (stereo not drawn)	-10%
117	COC(=O)CCN(C1CCCCC1)S(=O)(=O)c1ccc(S(=O)(=O)N2CCCCC2)cc1	-15%
118	O=C1c2ccccc2C(=O)N1CCCCn1c(=O)oc2ccccc21	?
119	CCc1ccc(C2CC(c3ccccc3C)n3nc(N)nc3N2)cc1 (stereo not drawn)	1%
120	CCCCNC(=O)OC1CCS(=O)(=O)C1 (stereo not drawn)	-3%
121	N#CC[n+]1cc(-c2ccc(Cl)cc2)n2c1CCC2	-7%
122	CCCCC=O	-2%
123	COc1cc(-c2nc3ccccn3c2/N=C/c2ccccc2)ccc1O	-20%
124	Cn1c(=O)c2cc(S(=O)(=O)NC(C(=O)N3CCCCCC3)c3ccccc3)ccc2n(C)c1=O (stereo not drawn)	-8%
125	COc1ccc2c(c1)nc(NCCO)n2C	-18%
126	CNC(=O)[C@@]1(Cc2ccccc2)C=C[C@@H](C)N1C(=O)OC	-8%
127	O=C(/C=C\c1cn(-c2ccccc2)nc1-c1cccs1)N1CCOCC1	?
